Assay outcomes (PubChem)
LANA-H2B inh: blocks KSHV LANA binding to histone H2A/H2B. 320,000 compounds, 0.6% hits. cell-free LANA-H2A/H2B peptide, fluorescence polarization. inhibition, % (test concentration not listed). Q9QR71. AID 2629; in the data active means inhibition mostly above about 10%, no sharp cut-off; inactive means mostly below about 6.7%;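 further: stock transfer was 7.5 nL into about 10 µL; 0% = median of vehicle wells and 100% = median of positive control wells; one replicate is shown; the record names a cut of 25% in any replicate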
Calb FLC: affects C. albicans growth with fluconazole. growth inhibition, % (test concentration not listed). 300,000 compounds, 0.57% hits. C. albicans CaCi-2 (fluconazole-resistant clinical isolate) + fluconazole, Alamar Blue growth, 48 h;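 active means most replicates above 75%; inconclusive means exactly half above 75%; inactive means most below 75%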;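 further: all wells also contain fluconazole at 8 µg/ml as a sub-toxic cotreatment; 0% = median of DMSO wells and 100% = median of geldanamycin control wells; wells of about 8 µL received 7.5 nL stock; the first replicate is given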
HNF4A DNA FP: change in binding of human HNF4 alpha to DNA | HNF4a-FITC DNA binding, fluorescence polarization, 1 h | activity change, % at 10 µM | 360,000 compounds, 0.3% hits | AID 1224865; in the data active means activity change above about 30%, passing the limit was not always enough;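 further: controls were the assay level and a saturating level of protein; the project sought stronger binding though the title names inhibitors; some compounds called inactive have numbers as strong as hits; positive values seem to mean higher polarization but the record does not say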
Target sequence (P41235 whole entry, looked up): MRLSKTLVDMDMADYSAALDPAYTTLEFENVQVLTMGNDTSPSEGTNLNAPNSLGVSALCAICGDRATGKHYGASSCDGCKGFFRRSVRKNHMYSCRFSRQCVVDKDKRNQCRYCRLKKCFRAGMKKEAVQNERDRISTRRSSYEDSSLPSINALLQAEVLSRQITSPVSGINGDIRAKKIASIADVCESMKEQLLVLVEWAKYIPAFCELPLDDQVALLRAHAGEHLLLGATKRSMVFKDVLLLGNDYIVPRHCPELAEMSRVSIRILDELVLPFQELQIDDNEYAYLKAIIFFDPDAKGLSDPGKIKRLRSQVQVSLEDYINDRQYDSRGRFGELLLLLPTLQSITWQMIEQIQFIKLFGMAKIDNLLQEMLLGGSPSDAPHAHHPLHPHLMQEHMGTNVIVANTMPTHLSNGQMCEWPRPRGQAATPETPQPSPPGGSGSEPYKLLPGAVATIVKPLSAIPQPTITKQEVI
ALR H2O2 inh: inhibitors of human sulfhydryl oxidase ALR. purified ALR, DTT oxidation, H2O2 HRP-luminol luminescence. inhibition, % (no concentration beside the values). 290,000 compounds, 3.8% hits;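 active means mean and each replicate at 75% or more; inconclusive means only one of the two met; inactive means neither met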;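 further: stock transfer was 7.5 nL into about 7.5 µL; 0% = neutral wells and 100% = wells with inactivated enzyme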
Beta2AR agonist: agonists of human beta-2 adrenergic receptor inducing internalization; P07550; Am2.2-beta2AR cells, FAP receptor internalization, flow cytometry; reference of the scale not given here; response, % (concentration not given with the values); 340,000 compounds, 0.43% hits; AID 504454;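 active means response above a set limit, near 3 SD of response in nonfluorescent compounds, cut at about 42% in these data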;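 further: stock transfer was 100 nL into about 11 µL; a reference agonist was the positive control; negative values mostly stem from fluorescent compounds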
Target sequence (P07550 whole entry, looked up): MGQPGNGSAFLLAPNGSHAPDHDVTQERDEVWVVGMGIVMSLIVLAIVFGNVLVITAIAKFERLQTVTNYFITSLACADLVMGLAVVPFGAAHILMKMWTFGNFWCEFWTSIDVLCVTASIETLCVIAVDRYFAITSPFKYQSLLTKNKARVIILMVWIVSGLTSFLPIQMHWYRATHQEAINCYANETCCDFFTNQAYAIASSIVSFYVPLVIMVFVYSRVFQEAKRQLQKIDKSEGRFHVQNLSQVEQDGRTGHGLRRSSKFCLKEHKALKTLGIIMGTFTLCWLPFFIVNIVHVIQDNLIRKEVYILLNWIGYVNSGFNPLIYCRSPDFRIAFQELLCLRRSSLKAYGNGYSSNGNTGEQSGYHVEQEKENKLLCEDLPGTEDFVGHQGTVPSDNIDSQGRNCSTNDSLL
Vif A3G: HIV-1 Vif–A3G interaction blockers – biochemical, TR-FRET, GST-Vif 1-94, biotin-A3G peptide, dose response retest, primary screen (AID 1117319). TR-FRET GST-Vif / biotin-A3G peptide binding; higher % means a stronger effect; test concentration not given here; strong numbers were not always called active. inhibition, %; hits with a dose series show IC50 in µM. 260,000 compounds, 0.57% hits;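 active means above the screen mean plus three standard deviations and confirmed in dose response; inconclusive means results disagree or hit not tested in dose response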;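 further: Vif residues 1-94 fused to GST binding biotinylated APOBEC3G peptide 110-148; 0% = full assay without inhibitor and 100% = GST in place of GST-Vif; retest series ran down from 100 µM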
RanGTP-Imp inh: inhibitors of RanGTP-importin-beta interaction, primary screen, biochemical, FRET, CFP-Ran, YFP-importin-beta, homogeneous. cell-free CFP-Ran/YFP-importin-beta FRET ratio. inhibition, % (test concentration not listed). 300,000 compounds, 1.1% hits;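 active means most replicates above 15%; inconclusive means exactly half above 15%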;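 further: 0% = DMSO wells and 100% = Ran loaded with GDP instead of GTP; wells of about 40 µL received 100 nL stock; the first replicate is given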
Numbers without * were called inactive; ? = inconclusive; nt = not tested or not shown.

SMILES,LANA-H2B inh,Calb FLC,HNF4A DNA FP,ALR H2O2 inh,Beta2AR agonist,Vif A3G,RanGTP-Imp inh
Cc1ccsc1C(=O)OCC(=O)c1cc2ccccc2o1,-2.4,-2,0.2,-6,3,3%,0.6
CC(C)OCCCNC(=O)C1CC(=O)N(C2CCCCCCC2)C1 (stereo not given),6.5,-4,-5.6,-1,-1,7%,6.2
Cc1cc(Cl)cc(C)c1OCC(=O)N1CCN(c2ncccn2)CC1,nt,nt,0.5,-4,2,-3%,nt
COc1ccc(CN2C(=O)c3cccnc3C2=O)cc1S(=O)(=O)NCc1ccc(C)cc1,-1.7,8,0.7,2,-11,nt,3.2
O=S1(=O)N=C(N(CCO)/N=C/c2ccccc2)c2ccccc21,nt,25,1.5,nt,-10,-11%,0.9
CCCc1cc(=O)oc2c3c(cc(OCC(=O)NCC4CCC(C(=O)O)CC4)c12)OC(C)(C)CC3 (stereo not given),-3.3,0,-1.2,2,-3,nt,1.8
O=C1OCCN1c1ccccc1,nt,nt,2.2,nt,-4,-10%,nt
N#C/C(=C\c1c(N2CCN(c3ccccc3)CC2)nc2ccccn2c1=O)C(N)=O,-0.6,-3,4.0,54,14,3%,0.2
Cc1cc(NC(=O)Cc2ccccc2[N+](=O)[O-])no1,0.3,10,2.4,-19,-5,nt,2.3
CC(NC(=O)/C(C#N)=C/c1cccs1)c1ccccc1 (stereo not given),-3.1,-13,-1.0,nt,3,-3%,-0.2
COc1ccccc1NS(=O)(=O)c1ccc(O)c(C(=O)OCC(=O)N2CCc3ccccc32)c1,-8.8,-1,-9.8,1,10,16%,?
CCCc1ccc(Oc2cc(C)nc(N3CCOCC3)n2)cc1,-27,2,3.5,-9,5,-11%,-1.5
CS(=O)(=O)Nc1ccc(Cc2ccc(NS(C)(=O)=O)cc2)cc1,2.3,-8,0.5,-16,1,3%,0.7
O=C(CSc1nc(O)c(Cc2ccccc2)c(=O)n1-c1ccccc1)N1CCOCC1,0.9,-10,1.0,10,-5,3%,4.9
Cc1ccc(C(=O)O/N=C(\N)c2ccccn2)cc1C,-2.1,1,0.3,1,-22,?,-3.8
CN(C)c1nc2ccccc2n(C)c1=O,-1.5,10,2.0,-2,1,-2%,3.2
CCCCn1cnc2cc(NCc3cccc(OC)c3O)ccc21,-12,-8,1.6,33,1,2%,0.7
COc1ccc(NC2=C(C(C)=O)C(c3ccc(OC)c(OC)c3)C(C(C)=O)C(C)(O)C2)cc1 (stereo not given),2.0,-6,1.6,-9,12,24%,164*
Cc1ccccc1-c1nc(SCc2ccccn2)c2c(=O)n(C)c(=O)n(C)c2n1,3.1,26,-1.2,-7,23,nt,0.3
Cc1cccc(C(=O)OC(C)C(=O)NC2CCCc3ccccc32)c1O (stereo not given),-3.6,-3,1.5,0,-8,6%,3.8
Cc1cc(C)c(C(=O)COC(=O)c2cccc(S(=O)(=O)NCc3ccccc3)c2)cc1C,-1.8,9,-1.9,-3,8,14%,-0.7
O=C(CN(Cc1ccco1)C(=O)CNS(=O)(=O)c1ccccc1)NCc1ccccc1,2.1,-16,-1.6,-1,-2,6%,?
COCC(=O)OCC(=O)Nc1cc(C(C)(C)C)nn1-c1ccccc1,-2.7,-2,-3.5,-20,-2,23%,2.1
COC(=O)CSc1nc2[nH]ncc2c(=O)[nH]1,4.0,1,2.2,-1,-3,0%,1.9
CC1=C(C(N)=O)C(c2ccccn2)n2nc(-c3ccccc3Cl)nc2N1 (stereo not given),nt,-7,-1.6,nt,1,27%,4.5
Cc1cccc(N2CCN(S(=O)(=O)c3cccs3)CC2)c1C,2.7,-13,-1.5,nt,6,nt,2.5
O=C(/C=C/c1ccccc1)NC(NC(=S)Nc1cccc(Cl)c1)C(Cl)(Cl)Cl (stereo not given),3.9,1,3.6,-5,-2,4%,5.2
COc1ccccc1CNC(=O)C(C)Sc1ccsc1[N+](=O)[O-] (stereo not given),4.8,-30,0.5,1,-3,?,3.1
Cc1ccc(C(=O)N2CCC(C)CC2)cc1C,-5.9,-4,-0.5,-13,-8,10%,-2.2
Cc1cc(O)c(-c2cc(O)c(C)cc2O)cc1O,-3.4,16,-0.1,23,35,8.4µM*,3.5
O=C(NCc1ccncc1)C(=O)Nc1nc2ccccc2s1,-3.7,0,-3.5,-16,-5,7%,-5.4
COc1ccc(OC)c(N(C(=O)c2snc(C(N)=O)c2N)C(C(=O)NCc2ccccc2)c2ccc(O)cc2)c1 (stereo not given),5.8,19,0.0,nt,0,2%,-1.2
CN(CC(=O)Nc1c(Cl)cccc1Cl)C(=O)Cc1ccc(S(=O)(=O)N2CCOCC2)s1,3.9,1,-0.6,-1,4,nt,0.1
COc1ccc(-c2nc3ccccc3nc2-c2ccccc2)cc1,-0.7,-7,-1.8,1,-12,13%,-0.7
Cc1ccsc1C(=O)Nc1ccccc1N1CCCC1,-1.1,-4,-0.2,99*,14,-1%,6.0
CC1CC(OC(=O)C(O)c2ccccc2)CC(C)(C)N1C (stereo not given),17*,-7,2.6,3,-2,13%,2.3
CCOc1ccc(/C=N/NC(N)=S)cc1,-0.9,15,-3.4,nt,3,1%,7.4
O=C(Oc1ccc(N2C(=O)CCC2=O)cc1)c1ccccc1,2.3,1,-4.3,-4,2,8%,-1.4
COc1cccc(/C=C/C(=O)OCC(=O)N2c3ccccc3CC2C)c1OC (stereo not given),nt,nt,1.6,nt,-2,-5%,nt
Cc1cc(C)cc(NC(=O)C2CCCN2S(=O)(=O)c2ccc3c(c2)n(C)c(=O)c(=O)n3C)c1 (stereo not given),0.7,3,2.7,50,3,nt,0.4
COc1cccc(NC(=S)Nc2cc(C)cc(C)n2)c1,4.7,2,5.0,13,1,-96%,-0.6
CC(C)(C)c1ccc(OCCCC(=O)N2CCOCC2)cc1,-2.0,16,8.6,-13,10,nt,?
O=C(Nc1ccc(N2CCOCC2)c(Cl)c1)c1ccc(Cl)cc1,4.0,19,5.8,-4,5,0%,0.4
Cc1ccccc1NC(=O)Cc1nc(COC(=O)c2cccc([N+](=O)[O-])c2)cs1,-1.5,-13,-5.8,0,2,nt,?
O=C(CSc1nc2ccccc2c(=O)n1Cc1ccco1)c1ccccc1,-4.4,8,3.3,21,-2,3%,2.1
C[C@]12CC[C@H](O)CC1=CCC1C2CC[C@@]2(C)C1CC[C@@H]2NC(=O)[C@@H](N)Cc1cnc[nH]1 (stereo not given in full),nt,nt,2.0,nt,7,-6%,nt
O=C/C(=C\Nc1ccc(Cl)cn1)c1nc2cc(Cl)ccc2o1,0.6,0,1.6,-10,-1,23%,7.7
O=C(NCCc1ccccc1)C1CCCN1C(=O)Nc1ccc(F)cc1 (stereo not given),2.2,1,0.5,-5,-8,-5%,0.9
CCCCNC(=O)N1CCCC(N(C)CCc2ccc(OC)c(OC)c2)C1 (stereo not given),-3.0,2,-0.6,-7,-2,nt,-0.2
O=C(N/N=C/c1sc(=O)n(-c2ccccc2)c1Cl)c1ccccc1,0.0,-12,7.0,-1,-25,nt,?
Cn1c(-c2ncc(F)cc2F)cc2onc(-c3c(F)cccc3Cl)c2c1=O,4.4,nt,1.7,2,0,nt,nt
COC(=O)c1c(-c2ccccc2)csc1N,5.6,30,1.3,nt,-6,-1%,-1.8
Cc1ccc(-c2cnco2)cc1,9.9,29,4.7,-5,1,8%,5.0
COc1ccc(OC)c(-c2csc(NC(=O)Cn3[nH]c(=O)c4ccccc4c3=O)n2)c1,-3.5,-6,8.0,nt,25,nt,2.1
OC(CN1CCC(Cc2ccccc2)CC1)c1ccccc1 (stereo not given),-2.7,-11,1.7,-10,2,-5%,0.2
Cc1cc[n+](CCc2ccccc2)cc1C,3.3,-6,-0.9,-1,7,-10%,3.0
O=C(NC(=S)Nc1ccccc1N1CCCCC1)c1ccccc1,-1.4,0,2.8,nt,3,-7%,3.6
CCOC(=O)C(NC(C)=O)C(=O)Nc1ccc(C)cc1C (stereo not given),-0.3,-7,-4.1,0,17,-8%,2.6
COc1cccc(NC(=O)CN(C)S(=O)(=O)c2ccc3c(c2)NC(=O)CS3)c1,6.9,-3,-1.6,-16,6,-14%,1.5
O=C(O)c1cc(N/N=C/c2ccncc2)ccc1Cl,11,-9,6.1,3,-1,0%,2.3

Other structures follow:
SMILES,LANA-H2B inh,Calb FLC,HNF4A DNA FP,ALR H2O2 inh,Beta2AR agonist,Vif A3G,RanGTP-Imp inh
CCOC(=O)c1ccc(Cn2c(-c3ccccc3)nnc2-c2ccccc2)o1,3.0,1,-1.6,2,-18,32%,6.6
O=C(COC(=O)c1nc(Cl)ccc1Cl)NCc1ccc(Cl)cc1,4.4,nt,-3.8,-2,2,nt,nt
Cc1ccc(-c2nn(C)c(=O)c3ccccc23)cc1CN1CCCCC1,3.2,-8,2.9,-4,-5,-4%,1.6
Cc1cc(C)cc(-c2nnc(SCC(=O)c3ccc4c(c3)OCCO4)o2)c1,-0.4,6,-4.1,-6,5,-1%,-0.9
N#Cc1c(-c2ccc(F)cc2)nc2n(c1=O)CCS2,-0.6,4,-1.9,-3,2,-2%,3.2
Brc1cccc(-c2nnc3sc(CN4CCC5(CC4)OCCO5)cn23)c1,-3.0,5,-0.1,2,-6,0%,4.4
Cc1ccc(C)c(SCC(=O)Nc2ccc(C)c(S(=O)(=O)N3CCOCC3)c2)c1,-2.1,nt,2.1,-1,1,0%,nt
Cc1ccc([C@@H]2[C@@H]3C(=O)N(c4ccccc4)C(=O)[C@@H]3[C@]3(C)C(=O)N(Cc4ccc(-c5ccccc5)cc4)CC(=O)N23)o1,-1.9,4,2.3,nt,3,nt,0.0
COc1ccccc1S(=O)(=O)Cc1ccc(C(=O)NCc2ccc3c(c2)OCO3)o1,11,-2,0.8,nt,-11,-3%,1.0
OCC[C@@H]1C[C@H](O)[C@@H](O)[C@]2(CCCc3ccccc3O2)O1,0.8,-2,0.9,-1,2,nt,?
O=C(NC1(C(=O)NC2CCCC2)CCCCC1)c1ccc2c(c1)OCO2,-5.5,-6,-0.3,-3,4,22%,1.4
